# YopH PTP inh: YopH (Yersinia) phosphatase inhibition | inhibition, %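 (about 10 µM by stock and volumes)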 | AID 898 | fluorescence Ex485/Em525 | 0.16% of 140,000 active;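 active means inhibition of 50% or more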;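 further: controls were vehicle for no effect and minimum signal wells for full effect; inactives centre near -20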
# Arbovirus anti: antivirals against arbovirus infection. arbovirus infection cell-based antiviral screen. 0.37% of 200,000 active. inhibition, % at 10 µM. AID 1251;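 active means inhibition from about 30%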;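 further: bluetongue infection of BSR cells; cell survival read as ATP light after 72 h; 0% = infected wells without compound and 100% = uninfected wells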
# Mtb growth: M. tuberculosis H37Rv growth inhibitors, H37Rv strain (AID 1626); M. tuberculosis H37Rv growth inhibition; higher % means a stronger effect; inhibition, % at 10 µM, or IC50 in µM where a hit was titrated; 0.95% of 220,000 active;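 active means confirmed in a dose series; inconclusive means inhibition above 80% but not taken into the dose series; inactive means below 80% or under 30% at every dose of the series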;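 further: bacteria incubated seven days before Alamar blue readout; 0% = bacteria only wells and 100% = bacteria with antibiotic wells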
# RecA intein inh: inhibitors of M. tuberculosis RecA intein splicing; 0.75% of 290,000 active; P9WHJ3; cell-free RecA intein splicing, fluorescence; inhibition, %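 (about 9 µM by stock and volumes)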; in the data active means inhibition above about 30%; inconclusive means no clear call, values can overlap the other calls;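 further: 0% = vehicle wells and 100% = reference inhibitor control wells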
# Target sequence (P9WHJ3 whole entry, looked up): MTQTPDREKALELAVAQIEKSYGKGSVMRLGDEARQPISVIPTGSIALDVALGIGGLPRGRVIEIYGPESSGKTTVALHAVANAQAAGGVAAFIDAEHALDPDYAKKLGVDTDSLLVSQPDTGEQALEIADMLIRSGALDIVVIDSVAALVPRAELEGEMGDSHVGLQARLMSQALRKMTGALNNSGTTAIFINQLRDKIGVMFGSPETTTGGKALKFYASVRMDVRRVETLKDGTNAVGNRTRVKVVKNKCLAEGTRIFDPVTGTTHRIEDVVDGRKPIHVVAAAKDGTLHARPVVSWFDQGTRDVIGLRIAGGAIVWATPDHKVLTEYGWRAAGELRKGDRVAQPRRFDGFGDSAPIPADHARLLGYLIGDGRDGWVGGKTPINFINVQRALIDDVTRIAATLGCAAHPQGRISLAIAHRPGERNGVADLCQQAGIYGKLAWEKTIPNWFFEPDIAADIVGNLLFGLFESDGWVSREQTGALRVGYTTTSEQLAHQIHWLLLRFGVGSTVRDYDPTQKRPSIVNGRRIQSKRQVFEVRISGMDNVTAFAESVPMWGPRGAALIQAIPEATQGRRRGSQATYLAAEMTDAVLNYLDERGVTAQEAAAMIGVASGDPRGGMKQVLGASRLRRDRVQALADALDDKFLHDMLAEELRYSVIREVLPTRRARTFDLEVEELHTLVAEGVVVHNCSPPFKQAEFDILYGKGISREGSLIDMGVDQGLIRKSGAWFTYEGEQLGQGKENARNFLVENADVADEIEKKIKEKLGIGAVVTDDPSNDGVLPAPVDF
# Mtb betalactam: beta-lactam sensitization of Mtb H37Rv; 0.27% of 330,000 active; AID 434955; M. tuberculosis H37Rv growth with meropenem, percent inhibition; hits of this screen are not shown here; inhibition, % at 25 µM;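 active means about 74% or more and at least 40 points above the plate without the antibiotic, then above 30% in a dose series; inconclusive means first-round hits that could not be retested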;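 further: growth measured after seven days incubation then overnight dye step; 0% = bacteria only wells and 100% = bacteria with antibiotic; twin plates without the antibiotic show which effects depend on it; some results filed as inactive read as strong as hits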
# Arbovirus anti repeat: further read-out of Arbovirus anti, marked with its call; inhibition, %; measured here: 10K subset replicate screen; many hits read low in the repeat;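 first of two repeat runs on a subset; 0% = infected and 100% = uninfected wells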
# * = called active by the depositor; ? = inconclusive; . = not tested or not shown.
SMILES,YopH PTP inh,Arbovirus anti,Mtb growth,RecA intein inh,Mtb betalactam,others
CCc1ccc(NC(=O)Cc2ccc(NC3=NC4CS(=O)(=O)CC4S3)cc2)cc1 (centres undefined),.,.,.,-3.5,0,
Cc1ccc(O)c(NC(=O)c2cc(-c3ccccc3)on2)c1,.,.,.,1.5,7,
CCSc1nn2c(=O)c3ccccc3nc2s1,-11,2,7%,-1.9,83,
COc1ccc(-c2ccc(=O)n(Cc3cccc(Cl)c3)n2)cc1,.,.,.,12,4,
CCOC(=O)c1sc(N(Cc2ccccc2)C(=O)COC(=O)c2ccc(O)cc2)nc1C,-37,-9,3%,-1.8,7,
C/C(Cc1ccccc1)=N\NC(=O)CNC(=O)c1ccc(Cl)cc1,.,.,2%,5.3,0,
COC(=O)Cn1c(=O)oc2ccc(C)cc21,.,11,-10%,-0.3,1,
Fc1ccc(Nc2nc(Oc3ccccc3F)nc(N3CCCC3)n2)cc1,-4,-2,15%,8.1,-7,
O=S(=O)(c1cc(C(F)(F)F)ccc1Cl)N1CCN(c2ccccn2)CC1,.,.,-5%,4.7,-7,
CCc1nc2c(sc3nc4c(cc32)COC(C)(C)C4)c(=O)n1Cc1ccccc1,-37,6,-2%,0.3,2,
CCC(=O)N1CCc2cc(S(=O)(=O)N3CCN(c4ccccc4Cl)CC3)ccc21,.,.,.,0.3,7,
CCCCC(CC)C(=O)Nc1cc(C(=O)NCCC)ccc1N1CCC2(CC1)CC(c1cccc(Br)c1)=NO2 (centres undefined),.,.,.,-3.1,1,
COc1ccc(OC)c(NC(=O)N2CCCC(C(=O)c3ccccc3OC)C2)c1 (centres undefined),.,9,-2%,1.8,-1,
O=C(NC(=S)Nc1ccc(Cl)cn1)C(c1ccccc1)c1ccccc1,-11,-14,-5%,6.1,-2,
COC(=O)c1c(NC(=O)CCS(=O)(=O)c2ccccc2)sc2c1CCN(C)C2,.,.,.,-4.0,-5,
O=S1(=O)N=C2CCCCCN2C(c2ccccc2)N1 (centres undefined),.,1,-4%,1.2,2,
CC1Nc2ncnc(N3CCOCC3)c2N(Cc2ccc(Cl)cc2)C1=O (centres undefined),.,.,.,2.0,4,
CC(=O)N1CCN(S(=O)(=O)c2cccc(C(=O)NNC(=O)COc3ccc(Cl)cc3C)c2)CC1,.,.,.,0.3,0,
O=C(NCc1ccco1)c1cc(-c2ccc3c(c2)OCO3)on1,-46,-20,3%,2.8,16,
Cc1ccc(C(=O)CC2(O)C(=O)N(C)c3ccccc32)o1 (centres undefined),.,-2,-10%,3.7,-5,Arbovirus anti repeat=-5
COc1cc([N+](=O)[O-])ccc1-c1ccc(/C=N/NC(N)=O)o1,.,.,16%,-3.8,10,
O=C(C1CCC1)N1CCc2cc(S(=O)(=O)NCC3COc4ccccc4O3)ccc21 (centres undefined),-7,1,2%,-2.8,-5,
O=C(CCNC(=O)c1ccccc1)Oc1ccc([N+](=O)[O-])cc1,-15,-1,3%,11,-4,
Cc1nc2ccccc2c(=O)n1CCc1ccccc1,.,.,.,0.6,1,
Clc1ccc(CNC2CCCC2)cc1,-15,8,-8%,2.6,-9,

# More structures follow:
SMILES,YopH PTP inh,Arbovirus anti,Mtb growth,RecA intein inh,Mtb betalactam,others
COc1cccc(-c2cc(C(=O)Nc3ccc(N(C)C(C)=O)cc3)c3cc(Br)ccc3n2)c1,.,.,.,5.0,34,
NS(=O)(=O)c1ccc(NC=C2C(=O)OC3(CCCCC3)OC2=O)cc1,-33,3,5%,-1.0,7,
COc1ccc(NS(=O)(=O)c2cccc(NC(=O)c3ccc(S(=O)(=O)N4CCCCCC4)cc3)c2)cc1,-23,-8,6%,-1.8,1,
CCOC(=O)C1CCCN(C(=O)c2ccc(Cn3c(=S)[nH]c4cc(C(=O)OC)ccc4c3=O)cc2)C1 (centres undefined),.,-7,-6%,-1.6,2,
O=C(NC(=S)NCCSc1ccccc1)c1cccnc1,-17,0,5%,-2.2,3,
COc1ccc(N2CCN(C(=O)CCCn3c(=O)[nH]c4ccsc4c3=O)CC2)cc1,-47,16,1%,-3.8,3,
Cc1ccc(S(=O)(=O)Nc2c3ccccc3nc(=O)n2-c2ccccc2)cc1,-10,4,-4%,-2.7,-8,
CCOc1ccc(CCNC(=O)COC(=O)/C=C/c2ccc(OC)c(OC)c2)cc1OCC,.,.,.,-4.4,2,
FC(F)(F)c1ccccc1/C=N/n1c(C2CCCCC2)n[nH]c1=S,.,.,.,15,0,
C=CCNS(=O)(=O)c1ccc(OCC(=O)OC)cc1,-10,5,-4%,0.1,3,
COC(=O)C1=C(C)N(C)C(=O)NC1c1cc2c(cc1Br)OCO2 (centres undefined),.,.,.,1.0,3,
CC(C)(C)NC(=O)c1ccccc1NC(=O)C1CCCO1 (centres undefined),.,4,1%,0.3,3,
COc1ccc(C(=O)c2coc3ccc(O)cc23)cc1,.,.,.,0.8,0,
COc1cccc(NC(=S)N(C)C2CCN(C)CC2)c1,.,.,.,-1.4,0,
CC(=O)N1C(=O)N(C(C)=O)C2C1N(C(C)=O)C(=O)N2C(C)=O (centres undefined),2,3,0%,-2.1,-1,
COc1ccc(S(=O)(=O)N2Cc3ccccc3CC2C(=O)N2CCOCC2)cc1OC (centres undefined),-11,-1,-2%,-2.7,-8,
Cc1cccc(OCc2nnc3n2CCCCC3)c1,-36,2,-8%,.,2,
O=C(Nc1c(F)cc(F)cc1Br)c1cc(-c2ccco2)on1,-27,2,?,1.2,.,
COc1cccc(-c2c(C(=O)N/N=C/c3cccnc3)nnn2-c2nonc2N)c1,.,.,.,-2.7,3,
CCOc1cc(/C=N\NC(=O)CN2CCOCC2)ccc1OCc1ccc(F)cc1,-24,5,5%,3.0,-3,
COc1ccc(NC(=O)N2CCc3ccccc3C2)cc1,.,.,.,2.2,-5,
O=C(CSc1ncnc2c1nnn2Cc1ccc(F)cc1)NC1CCCC1,.,18,-7%,9.1,-6,
Nc1nc(-c2ccccc2)c(-c2ccc([N+](=O)[O-])cc2)s1,.,33*,7%,-0.4,6,
COc1ccc(NC(=O)COc2ccccc2C(=O)NCC(c2ccccc2)N(C)C)cc1Cl (centres undefined),.,.,.,-0.3,3,
CCCN1CCN(C(=O)C2CCN(c3nnc(C)c4c(C)n(-c5ccc(C)cc5)nc34)CC2)CC1,.,.,.,2.7,-4,

# Molecules from the list above that contain an aryl thioether with sulfur outside any ring, in the order listed:
SMILES,YopH PTP inh,Arbovirus anti,Mtb growth,RecA intein inh,Mtb betalactam,others
CCSc1nn2c(=O)c3ccccc3nc2s1,-11,2,7%,-1.9,83,
O=C(NC(=S)NCCSc1ccccc1)c1cccnc1,-17,0,5%,-2.2,3,
O=C(CSc1ncnc2c1nnn2Cc1ccc(F)cc1)NC1CCCC1,.,18,-7%,9.1,-6,

# As a short view, part of the list above.
SMILES,YopH PTP inh,Arbovirus anti,Mtb growth,RecA intein inh,Mtb betalactam,others
COc1cccc(-c2cc(C(=O)Nc3ccc(N(C)C(C)=O)cc3)c3cc(Br)ccc3n2)c1,.,.,.,5.0,34,
NS(=O)(=O)c1ccc(NC=C2C(=O)OC3(CCCCC3)OC2=O)cc1,-33,3,5%,-1.0,7,
COc1ccc(NS(=O)(=O)c2cccc(NC(=O)c3ccc(S(=O)(=O)N4CCCCCC4)cc3)c2)cc1,-23,-8,6%,-1.8,1,

# Additional results:
SMILES,YopH PTP inh,Arbovirus anti,Mtb growth,RecA intein inh,Mtb betalactam,others
O=C(Nc1ccccc1Cl)Nc1ccccc1Cl,.,.,-9%,-2.0,9,
NS(=O)(=O)c1ccc(CNC(=O)/C=C/c2ccco2)cc1,.,.,.,-1.0,-3,
Cc1ccc(Cl)cc1N1CCN(C2CCCCC2NS(=O)(=O)c2ccccc2)CC1 (centres undefined),.,.,.,-0.3,26,
COCCNC(=S)N(Cc1cc2cc(C)ccc2n2nnnc12)C1CCCC1,.,-1,-5%,2.6,-2,
CCCCN(C)C(=O)Cn1c(=O)oc2cc(S(=O)(=O)N3CC(C)CC(C)C3)ccc21 (centres undefined),.,.,0%,-0.5,-4,
CC(C)Oc1ccc(C(CC(=O)O)n2cnnn2)cc1 (centres undefined),.,25,-6%,-3.9,-1,
Cc1cccc(C)c1N(Cc1ccccc1F)S(C)(=O)=O,.,5,-6%,3.8,-7,
CC(=O)N1CCN(c2ccc(NC(=O)c3ccc4c(c3)OCCO4)cc2Cl)CC1,.,-29,4%,1.2,35,
O=C(COC(=O)c1c(Cl)cccc1Cl)Nc1cc(Cl)ccc1Oc1ccccc1,-15,19,-6%,9.5,2,
O=C(CCc1ccc(S(=O)(=O)N2CCOCC2)cc1)Nc1nccs1,-20,-4,-2%,-1.7,-14,
C=CCN(Cc1cccc(OC)c1OC)S(=O)(=O)N(C)C,-1,3,-8%,3.4,-2,
Cc1ccc(CNC(=O)Cc2noc3ccccc23)cc1,.,2,5%,-0.5,63,
O=S(=O)(Nc1ccc(O)c2ccccc12)c1ccc(OC(F)(F)F)cc1,.,.,.,95*,-9,
Cc1cccc(NS(=O)(=O)c2csc(C(N)=O)c2)c1,.,.,.,2.0,2,
CN1C(=O)CC(c2cn(Cc3ccccc3)c3ccccc23)C1=O (centres undefined),.,.,-3%,6.9,-6,
COc1ccccc1-c1noc(-c2ccccc2C(=O)NCC2CCCO2)n1 (centres undefined),.,.,.,1.3,0,
Cn1ncc(N=Cc2ccccc2)c1C(N)=O,-44,-2,-8%,10,-13,
Cc1ccc(NC(=O)CS(=O)CC(=O)NCC2CCCO2)cc1 (centres undefined),-16,4,1%,-0.9,-7,
COCCn1c(-c2ccc(Cl)cc2)nc2c(c(=O)c3ccccc3n2C)c1=O,-36,-5,6%,-0.3,2,
CCOC(=O)c1c(C)n(CCOC)c2ccc(O)cc12,3,5,-1%,-1.9,9,
CCC/C=C(\CCC)C(NP(=O)(c1ccccc1)c1ccccc1)c1ccccc1 (centres undefined),.,.,8%,2.9,-3,
COc1ccc(-n2c(=O)c3c4c(sc3n3cnnc23)CC(C)CC4)cc1 (centres undefined),-3,-3,0%,1.2,0,Arbovirus anti repeat=-1
CC(=O)N1CCC2(CC1)C/C(=N\NC(=S)Nc1ccc(C)cc1)c1cc(O)ccc1O2,.,11,-4%,-1.4,2,
CN(CCc1ccccn1)C(=S)Nc1cccc(S(=O)(=O)N(C)C)c1,.,.,.,-4.1,4,
Cc1cccc(OP(N)(=O)Oc2cccc(C)c2)c1,.,.,-2%,3.7,4,

# Continuation.
SMILES,YopH PTP inh,Arbovirus anti,Mtb growth,RecA intein inh,Mtb betalactam,others
COc1cccc(-n2c(SCC(=O)NCc3cccs3)nc3ccccc3c2=O)c1,-29,1,39%,7.6,-6,
CC(C)N1CC(C(=O)Nc2nc3ccccc3s2)CC1=O (centres undefined),13,4,-12%,-0.8,-6,
CCOc1ccc(-c2ccc(/C=C3/C(=N)N4C=CSC4=NC3=O)o2)c([N+](=O)[O-])c1,17,-14,9%,11,-11,
Cc1ccc(-c2nc3ccccc3c(=O)n2CCCn2ccnc2)cc1,14,3,1%,-1.0,-3,
COc1ccc(NC(=O)c2ccc(-n3cccn3)nc2)c(OC)c1,-29,5,-8%,-1.2,10,
CCOC(=O)c1ccc(NC(=S)N2CCN(CCNC3=CC(=O)CC(C)(C)C3)CC2)cc1,.,-2,?,0.4,-9,
C/C(=N\NC(=S)NC1CCCCC1)c1ccc(OC(F)F)cc1OC(F)F,.,-1,3%,0.1,7,
COc1ccc(CC(=O)N/N=C/c2c(C)n(C)c3ccccc23)cc1OC,.,.,-7%,-2.3,-16,
CCSc1ccc([C@@H]2[C@@H]3C(=O)N(CC)C(=O)[C@@H]3[C@]3(C(=O)OC)CCCCN23)cc1OC,.,.,.,2.5,-4,
COCc1nnc(NC(=O)CCN2C(=O)c3ccccc3C2=O)s1,-5,6,-6%,1.2,-10,
COc1ccccc1CNC(=O)COC(=O)c1cc(-c2ccco2)nc2ccccc12,18,15,6%,-0.4,5,
CCc1cc(=O)[nH]c(SCCC(F)=C(F)F)n1,.,6,0%,2.2,-6,
CCOC(=O)CSc1nnc(NCC(=O)OC)c(=O)[nH]1,7,4,-8%,37*,-4,
CCCC(=O)Nc1nc2ccc(S(N)(=O)=O)cc2s1,-20,-3,5%,-1.8,-7,Arbovirus anti repeat=-5
CC1=C(C(=O)Nc2ccccc2)C(c2ccc(C)o2)n2c(s/c(=C/c3ccccc3)c2=O)=N1 (centres undefined),7,-22,-1%,-2.3,98,
COc1ccccc1N1CCN(C(=O)CN(C2CCCCC2)S(C)(=O)=O)CC1,.,0,-1%,-0.1,-6,
Cc1c(O)ccc(C(=O)CN2C(=O)c3ccccc3C2=O)c1O,-25,7,-1%,.,94,
O=C1C2CCCN2C(c2ccc(Cl)c(Cl)c2)N1c1ccccn1 (centres undefined),32,5,-10%,1.6,-3,

# Assay outcomes from PubChem BioAssay.

# A portion of the library; the hit share may differ from the screen's.
